Screening data deposited in PubChem by PCMD.
Calb biofilm kill – mixture kills Candida albicans biofilm cells | C. albicans biofilm persisters + clotrimazole, fluorescence viability; primary screen in compound mixtures of four per well | inhibition, % at 7.6 µM | 120,000 tested, 0.02% active;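 active = inhibition above 30.3% in the primary screen of four-compound pools, then above 30% when the compound was retested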;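 note: compounds exposed to preformed 24 h biofilms for 48 h; the number belongs to the whole pool; some results filed as inactive read as strong as hits; inactives centre near 12; 0% = biofilm with clotrimazole alone and 100% = kill control; retested singly at about 60 µM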
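Test system: C. albicans biofilms. Buffer or medium: RPMI/MOPS medium, pH 7.0. Timing: 48 h compound exposure at 37 °C. Technique: Alamar Blue fluorescence. Evaluation: percent inhibition of biofilm viability.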
Numbers without * were called inactive.

compound | Calb biofilm kill
Cc1nn(-c2ccccc2)c(Cl)c1/C=N/NC(=O)c1cccc(S(=O)(=O)N2CCCC2)c1 | 10.8
CCOc1cc(/C=C(\C#N)C(N)=O)ccc1OCc1c(C)no[n+]1[O-] | 19.1
CC(C)c1ccc(/C=C/C(=O)CCC(=O)O)cc1 | 13.2
CCC(C)(C)NC(=O)C1CCCN1C(=O)NC1CCCCC1 (stereo not drawn) | 2.0
CCOC(=O)C(=CNc1cc(C)ccc1[N+](=O)[O-])C(=O)OCC | 20.3
CC(C)CN(CCCNC(=O)CN1C(=O)CSc2ccc(S(=O)(=O)N3CCOCC3)cc21)CC(C)C | 33.2
O=C(O)CSCC(=O)NCc1c(Cl)cccc1Oc1ccccc1 | 12.6
COc1cc(/C=N/NS(=O)(=O)c2ccc(C)cc2)ccc1OCc1cccc(C(=O)O)c1 | 21.6
Cc1cc(C)cc(-n2nnnc2SCC(=O)N2CCOCC2)c1 | 9.2
COc1ccc(/C=N\NC(=O)COc2ccc(Cl)cc2Cl)c(C(=O)O)c1OC | 14.6
O=C(NNC(=O)c1cc2cc(Br)ccc2oc1=O)c1ccc(O)cc1O | 17.9
CS(=O)(=O)N1N=C(c2ccco2)CC1c1ccccc1 (stereo not drawn) | 14.9
Cc1onc(-c2c(F)cccc2Cl)c1C(=O)ONC(=O)c1ccccc1 | 21.6
Cc1nc(/C(N)=N/OC(=O)c2c(-c3ccccc3Cl)noc2C)cs1 | 23.4
COc1ccccc1NC(=O)C/C(C)=N/NC(=O)COc1c(Br)cc(Br)cc1OC | 8.1
CCc1nccn1S(=O)(=O)c1cccc([N+](=O)[O-])c1 | 9.0
O=C(CSc1n[nH]c(-c2ccccc2)n1)Nc1ncccn1 | 2.6
COc1ccc(C2COC(=O)C2=N)c(NC(=O)c2ccccc2)c1 (stereo not drawn) | 1.6
O=S(=O)(NC(=S)NC1CCCCC1)c1ccc(Cl)cc1 | -21.5
O=C(CC1SC(=Nc2cccc3ccccc23)N(Cc2ccccn2)C1=O)Nc1ccccc1Br (stereo not drawn) | 16.1
O=C(COc1ccc(Cl)cc1Cl)NN1C(=O)C2C3C=CC(C3)C2C1=O (stereo not drawn) | 25.9
COc1ccc(/C=C(\C#N)C(=O)N=CN(C)C)cc1 | 10.1
O=C(Nc1ccccc1F)Nc1cc(S(=O)(=O)N2CCOCC2)ccc1N1CCCC1 | 15.7
CN(C)CCNC(=O)/C(=C/c1ccc(-c2ccc(Cl)cc2Cl)o1)NC(=O)c1ccccc1 | 13.5
CCOC(=O)c1nnn(CC(=O)NC(=O)Nc2ccc(F)cc2)c1C(=O)OCC | 12.8
CC(=O)Nc1ccc(S(=O)(=O)NCC(=O)OCC(=O)NC23CC4CC(CC(C4)C2)C3)cc1 | 9.6
CN1CCc2cccc3c2[C@H]1Cc1ccc(O)c(O)c1-3 | 19.0
OCCC1CN(Cc2cccn2-c2ncccn2)CCN1Cc1ccc(F)cc1 (stereo not drawn) | 22.8
O=C(O)c1ccc2c(=O)n(-c3ccc(F)c(Cl)c3)c(=S)[nH]c2c1 | 11.4
COCCNc1nnnc2c1sc1nc(N3CCOCC3)c3c(c12)CC(C)(C)OC3 | 16.7
O=C(NCCCN1CCOCC1)c1ccc(Sc2cccc(Cl)c2)c([N+](=O)[O-])c1 | 9.9
CN(c1ncc(C(F)(F)F)cc1Cl)N1C(=O)C2ONC3(C(=O)CC(C)(C)CC3=O)C2C1=O (stereo not drawn) | 12.4
CC12c3ccccc3C(c3ccccc31)C1C(=O)N(c3ccncc3)C(=O)C12 (stereo not drawn) | 20.5
Cc1nsc(Nc2ccc([N+](=O)[O-])cc2)c1C#N | -1.2
COc1cccc(CCc2nnc(CCC(=O)NC(C)c3c(C)nn(C)c3C)o2)c1 (stereo not drawn) | 2.6
CCO[C@H]1OC(C(=O)N2CCN(Cc3ccc4c(c3)OCO4)CC2)=C[C@@H](C)[C@@H]1CCCO | 17.0
Cc1ccccc1N1CCN(C(=S)c2ccc(-c3ccc([N+](=O)[O-])cc3)o2)CC1 | 17.9
COc1ccc(CNC(=O)/C=C/c2ccc(S(=O)(=O)NCc3ccco3)cc2)cc1OC | 5.9
O=[N+]([O-])c1ccc(Nc2ccc(F)cc2)nc1 | 12.1
Cc1nc2ccc(Cc3ccc4nc(C)[nH]c4c3)cc2[nH]1 | 19.3
c1ccc(-c2nc3c4ccccc4ccn3c2CN2CCOCC2)cc1 | 26.7
Nc1ccc(C(=O)OCC(=O)N2CCc3ccccc3C2)cc1[N+](=O)[O-] | 16.2
O=C(CCC1CCCN(C(=O)c2cc(C3CC3)[nH]n2)C1)N1CCN(c2ccccn2)CC1 (stereo not drawn) | 2.7
CCC1(C)Cc2c(sc3nc(SCC(=O)c4ccccc4)[nH]c(=O)c23)CO1 (stereo not drawn) | 21.9
CC(=O)C1=C(c2cccc([N+](=O)[O-])c2)N(C(C)=O)n2c(C)nnc2S1 | 9.5
CCn1ncc(CNC(=O)c2cccc([N+](=O)[O-])c2)c1C | 12.7
Cc1cc(C(=O)N/N=C/c2ccco2)c2ccccc2n1 | 19.1
COc1ccc(C2C(C#N)=C(N)OC3=C2C(=O)CC(C)(C)C3)cc1Cn1nc(C)c([N+](=O)[O-])c1C (stereo not drawn) | 12.4
CCC(=O)N1CCN(c2ccc(NC(=O)c3cc4ccccc4o3)cc2)CC1 | 15.8
Nc1ccccc1Oc1ccc2ccccc2c1 | 24.0
Cc1nn2c(NCc3ccccn3)cc(C(C)(C)C)nc2c1-c1ccccc1 | 13.2
CC1=C(C(=O)OCc2ccccc2)C(c2ccc(Cl)cc2Cl)NC(=O)N1CCCC(=O)O (stereo not drawn) | 8.6
O=c1[nH]ncc(N/N=C\c2cccs2)c1Cl | 4.6
CCCCC#Cc1cncc(C(=O)N/N=C/c2ccccc2)c1 | 26.1
N#CCC(=O)N/N=C/c1cn(Cc2ccc3ccccc3c2)c2ccccc12 | 19.1
Cc1c(-n2c(O)c(C3=c4ccccc4=NC3=O)sc2=O)c(=O)n(-c2ccccc2)n1C | 1.9
N#Cc1cccc(NC(=O)Cc2ccccc2)c1 | 17.1
COc1ccc(Cl)cc1C(=O)NNC(=O)CCNC(C)=O | 13.1
Cc1cc(C)n(CC(C)NC(=O)c2cc(COc3c(F)cccc3F)on2)n1 (stereo not drawn) | 10.6
C=CCOc1ccc(/C=C2\SC(=S)N(N3CCOCC3)C2=O)cc1 | 9.9

Other compounds
SMILES	Calb biofilm kill
O=C(Nc1ccc(F)cc1)Nc1ccc(N2CCCC2)c(S(=O)(=O)Nc2ccccc2Cl)c1	-15.6
CCOC(=O)c1cc2c(nc1N)CCCC2	3.3
CC(C)Oc1ccc(Br)cc1/C=N\NC(N)=S	13.9
O=C1CCCCC1Sc1nnc(-c2ccc3c(c2)OCO3)o1 (stereo not drawn)	17.5
Cc1cccc(NC(=O)Cn2c(O)c(N=NC(=O)c3ccncc3)c3ccccc32)c1	7.2
NC(=O)CC[C@@H]1NC(=O)[C@@H]2CCCN2C(=O)c2cc([N+](=O)[O-])cc(I)c2NCCC[C@@H](C(=O)NC(CC(=O)O)C(N)=O)NC1=O (stereo partly drawn)	17.7
COc1ccc(N2CCN(C(=O)CN(C3CCCCC3)S(C)(=O)=O)CC2)cc1	22.8
CN1C(C(=O)NCCc2cccs2)CC2Cn3c(nc4cc5ccccc5cc43)C21 (stereo not drawn)	13.0
COc1ccc(/C=N/NC(=O)c2snnc2C)c(OC)c1OC	12.4
CCCCCNCC(=O)Nc1cccc(C(=O)Nc2cccc(C(F)(F)F)c2)c1	-4.4
Cc1c(Cl)cccc1NC(=S)N(Cc1ccccc1)Cc1cccnc1	13.3
Cc1ccc(S(=O)OCC(=O)Nc2cc(Cl)ccc2N2CCOCC2)cc1 (stereo not drawn)	16.1
CCc1cccc(CC)c1NC(=O)CSc1nnc(CCC(=O)O)c(=O)[nH]1	1.1
COc1ccc(-c2cc(=O)c3cc(OC)c(OC)cc3[nH]2)cc1	-0.8
Cc1ccc(C(=O)Oc2coc(CSc3nnc(NC(=O)c4cccs4)s3)cc2=O)cc1	3.6
O=C(O)c1ccc2c(=O)n(-c3ccccc3)c(=S)[nH]c2c1	19.8
CC(C)(C)C1=CC(=Nc2ccccc2N)C=C(C(C)(C)C)C1=O	13.3
Cc1ccc(S(=O)(=O)C(C#N)c2nc3ccccc3nc2N2CCN(C)CC2)cc1 (stereo not drawn)	22.6
COc1ccc(C2CC(c3ccccc3)=NN2S(=O)(=O)c2ccc(C)cc2)c(OC)c1 (stereo not drawn)	-1.4
CCCCSc1nnc(CCNC(=O)OC(C)(C)C)o1	17.2
CC(=O)CC(C)(C)Nc1nc2ccc([N+](=O)[O-])cc2o1	26.1
CCN(CC(=O)Nc1ccc(OC)cc1)C(=O)c1ccc([N+](=O)[O-])cc1	7.2
CCOc1ccc(NC(=S)N2CCN(CCN3C(=O)c4cccc5cccc(c45)C3=O)CC2)cc1	6.6
Cc1ccc(/C=C2\Oc3cc(OC(=O)N4CCOCC4)ccc3C2=O)cc1	7.3
Nc1nc(/C=C/c2cccnc2)nc(-c2ccccc2O)n1	4.0
Cc1ccc(C(=O)OCC(=O)Nc2c(C)n(C)n(-c3ccccc3)c2=O)cc1[N+](=O)[O-]	8.8
O=C(COC(=O)c1c[nH]c(=O)[nH]c1=O)Nc1ccccc1	6.0
CCCNC(=O)Cc1c(C)oc2ccccc12	23.1
CC(C)CNC(=O)CCCSc1nc2ccccc2[nH]1	7.8
CC(=O)NC(=S)Nc1ccc([N+](=O)[O-])cc1C	28.4

Single entries from the list.
Calb biofilm kill, CCCCC#Cc1cncc(C(=O)N/N=C/c2ccccc2)c1 reads 26.1
Calb biofilm kill, COc1ccc(/C=C(\C#N)C(=O)N=CN(C)C)cc1 reads 10.1

Following part.
SMILES	Calb biofilm kill
Cc1ccnc(NS(=O)(=O)c2ccc(NC(=O)Cc3ccccc3)cc2)n1	7.9
CN1N=C(C(C)(C)C)CSC1=Nc1ccc(F)cc1	17.4
CCOC(=O)C1(CCCc2ccccc2)CCN(C2CCN(C(C)=O)CC2)CC1	6.0
Fc1cccc(Cl)c1CSc1nnc2ccccn12	16.5
CC(C)CC(=O)Nc1ccc(C(=O)CN2CCC(C)CC2)cc1	0.5
Cc1cc(C)n(C(N)=NC(=O)c2ccc([N+](=O)[O-])cc2)n1	12.7
CC(=O)c1cn(-c2ccc(Cl)cc2)c(=O)n(Cc2ccc(Br)cc2)c1=O	3.8
Cc1ccc(-c2nnn(CC(=O)N(CC(=O)NC3CCCC3)c3ccc(F)c(Cl)c3)n2)o1	8.1
C=C1CN(CC(=O)OC)S(=O)(=O)c2ccccc21	7.1
COCCn1c(-c2ccccc2)nc2ccccc21	9.8
CCOC(=O)c1nc2sc3c(c2c(=O)[nH]1)CCC(C)C3 (stereo not drawn)	13.3
COc1cc(/C=N/N=C/c2c[nH]c(=O)c(C#N)c2Nc2ccccc2)ccc1O	19.4
Cc1cc(C)c(C(=O)COC(=O)c2ccc(NC(=O)CC#N)cc2)cc1C	18.2
Cc1ccccc1-n1c(SCC(=O)c2c(N)n(C)c(=O)n(C)c2=O)nnc1-c1cccnc1	7.0
CCOC(=O)CSc1ccc(S(=O)(=O)N2CCC(C)CC2)cc1[N+](=O)[O-]	15.4
CC1CCCCC1NC(=O)c1nnc(Cc2ccc(Cl)cc2)o1 (stereo not drawn)	16.5
COC(=O)/C=C1/SC(=Nc2ccc(Cl)c(Cl)c2)NC1=O	24.8
O=C(C[n+]1cc(-c2ccc(Cl)c(Cl)c2)n2c1CCC2)c1cccs1	27.2
COc1c(OC(C)=O)ccc(/C=C/c2ccc3cccc(OCc4ccccc4)c3n2)c1[N+](=O)[O-]	18.8
CC(=O)c1c(C)[nH]c(C(=O)Nc2ccc(Cl)c(S(=O)(=O)N3CCOCC3)c2)c1C	2.1
O=C(CO/N=C/c1ccccc1)N1c2ccccc2Oc2ccccc21	4.6
COc1ccc(CCNC(=O)Cn2c(=O)n(-c3ccc(F)cc3)c(=O)c3sccc32)cc1OC	4.3
CCCC(=O)OCC(=O)Nc1ccc(N=Nc2ccccc2)cc1	12.0
CN(Cc1ccon1)Cc1cn[nH]c1-c1ccc(-c2ccccc2)cc1	23.0
CCOC(=O)C1CCN(c2c(NCCC(C)C)c(=O)c2=O)CC1	29.2
Cn1c(CO)cnc1SCC(=O)c1ccc(Br)cc1	6.2
C=CCC1(CC=C)CCCN1Cc1nc(COc2ccccc2)no1	24.8
CN(Cc1nc(Cc2cccc(F)c2)no1)CC1CCOCC1	13.3
CCCNS(=O)(=O)c1ccc(CCC(=O)Nc2ccc3c(c2)OCCO3)cc1	6.4
CN(C)S(=O)(=O)c1ccc(Cl)c(NC(=O)CSc2nnnn2-c2ccc(O)cc2)c1	5.8

Exported field by field: entries from further up
canonical_smiles: COC(=O)/C=C1/SC(=Nc2ccc(Cl)c(Cl)c2)NC1=O
- Calb biofilm kill = 24.8
canonical_smiles: O=C(C[n+]1cc(-c2ccc(Cl)c(Cl)c2)n2c1CCC2)c1cccs1
- Calb biofilm kill = 27.2
canonical_smiles: COc1c(OC(C)=O)ccc(/C=C/c2ccc3cccc(OCc4ccccc4)c3n2)c1[N+](=O)[O-]
- Calb biofilm kill = 18.8

More structures.
SMILES	Calb biofilm kill
Cc1nn(-c2ccccc2)nc1C(=O)c1c(C)[nH]n(-c2ccccc2)c1=O	-1.1
O=C1[C@@H]2C(c3cccnc3)=NO[C@@H]2C(=O)N1c1ccc2ccccc2c1	2.6
CC(=O)c1c(C)oc2ccc(N(C(=O)C3CCCCC3)S(=O)(=O)c3cc([N+](=O)[O-])ccc3C)cc12	8.9
N#C/C(=C(/O)c1ccc([N+](=O)[O-])s1)c1nc2ccccc2[nH]1	19.5
CCOC(=O)NNc1cc(C(F)(F)F)ccn1	0.7
COc1cc(/C=N/n2c(-c3cc(C)[nH]n3)n[nH]c2=S)cc(OC)c1O	18.7
COc1cc(CO)c(Br)cc1OCC(N)=O	-1.6
Clc1cccc(CSC2=NCCCN2)c1	14.2

This is a subset; count on the stated rates, not on these rows.
